Source: PubChem BioAssay (National Center for Advancing Translational Sciences (NCATS))
miR-21 FLuc = qHTS Assay for Modulators of miRNAs and/orActivators of miR-21 | HeLa miR-21 FLuc reporter, luciferase, 48 h | Potency, µM (series often up to 38.3 µM), for the others: at the top dose reporter change, positive = more light | 340,000 tested, under 10 active; active = well fitted rising curve with a large enough effect; inconclusive = small, poorly fitted or top-dose-only effect; inactive = no such curve, though single readings can be large or run the other way;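 also: % of control where 0% means no effect; miR-21 action dims this reporter so a rising signal means less miR-21 action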
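HeLa miR-21-FLuc reporter line, endogenous miR-21; 2000 cells/well in DMEM/10% FBS; compound titration up to ~40uM final, 48 h, 37 degree Celsius; luciferase detection reagent, 15 min lysis, CCD luminescence.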
GLA inh pH 4.5 = qHTS Assay for Inhibitors of Human alpha-Galactosidase at pH 4.5. purified enzyme, 4-MU-alpha-Gal fluorescence, pH 4.5. Alpha-galactosidase A (Homo sapiens), P06280. activity change, negative = inhibition, % at 105 µM. 230,000 tested, under 10 active; inconclusive = small, poorly fitted or top-dose-only inhibition, or a rising curve; inactive = flat fitted curve, though single readings scatter; no compound was filed as active;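 also: 0% = full activity with enzyme and -100% = basal without enzyme; dose as in the result columns while the protocol names 77 µM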
Target sequence (P06280 whole entry, looked up): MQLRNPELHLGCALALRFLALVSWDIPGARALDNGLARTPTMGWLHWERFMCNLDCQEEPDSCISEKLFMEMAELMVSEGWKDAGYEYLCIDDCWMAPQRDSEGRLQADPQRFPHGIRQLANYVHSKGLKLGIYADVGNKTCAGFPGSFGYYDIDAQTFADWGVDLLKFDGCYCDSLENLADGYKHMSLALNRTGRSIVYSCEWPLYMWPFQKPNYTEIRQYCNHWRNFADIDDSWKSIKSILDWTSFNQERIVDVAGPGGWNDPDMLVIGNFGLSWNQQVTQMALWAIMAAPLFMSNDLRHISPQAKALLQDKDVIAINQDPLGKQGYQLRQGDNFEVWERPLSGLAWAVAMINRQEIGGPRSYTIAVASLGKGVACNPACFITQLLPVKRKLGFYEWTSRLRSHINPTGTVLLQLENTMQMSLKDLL
Rango release inh = qHTS Assay for Inhibitors of RanGTP induced Rango (Ran-regulated importin-beta cargo) - Importin beta complex dissociation. Snurportin-1 (Homo sapiens) + GTP-binding nuclear protein Ran (Homo sapiens) + Importin …. Biochemical FRET Rango-importin beta, RanGTP-induced dissociation. Potency, µM (doses to about 46.1 µM), inactives show at the highest dose activity change, negative = inhibition. hit rate 0.071% among 340,000. AID 540253, 2011; active means falling FRET ratio curve, often poorly fitted, with flat reads before Ran was added; inconclusive means other falling curves, or compound fluorescence or quenching; inactive means flat or rising ratio curve;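 also: potency is read from the fitted curve at half-maximal effect; % of control where 0% means no effect; nearly all actives have a fitted effect of over 45% in size; -100% = wells without RanGTP and RCC1; the record marks most hits as doubtful in a second field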
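Two FRET readings bracket the reaction: one 5 min after compound meets Rango–importin beta, another 45 min after RanGTP-RCC1 (0.6 uM Ran, 0.2 uM RCC1, 2 mM GTP) is added. Only the second defines inhibition.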
Rango complex inh = qHTS Assay for Inhibitors of Rango (Ran-regulated importin-beta cargo) - Importin beta complex formation. Potency, µM (titrated, usually from 92.2 µM), for inactives: at the top dose inhibition of complex formation. hit rate 0.031% among 340,000. Rango CFP/YFP FRET sensor + importin beta, 45 min; active = rising FRET ratio curve, often small or poorly fitted; inconclusive = mostly compound fluorescence or quenching in the first reads; inactive = flat curves in all reads;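 also: potency is read from the fitted curve at half-maximal effect; 0% = DMSO wells and 100% = buffer wells lacking importin beta; nearly all actives have a fitted effect of over 15% in size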
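FRET biosensor Rango (snurportin 1 IBB between N-terminal EYFP and C-terminal Cerulean), 50 nM in PBS/1 mM DTT/0.02% Tween-20/0.1% BSA, preincubated 5 min RT with compound; 0.125 microM importin beta added, 45 min RT, CFP/YFP FRET ratio read.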
* hit, by the source's call. This is a subset, so the mix of outcomes need not match the whole.

Cc1ccccc1OCC(=O)NCCN1CCCC1 was read as miR-21 FLuc 0%, GLA inh pH 4.5 6, Rango release inh 36% and Rango complex inh -1.9%.
`COc1cccc(CC(=O)Nc2ccc(F)c(S(=O)(=O)N3CCOCC3)c2)c1` gave Rango release inh -9% and Rango complex inh 4.9%.
Cc1ccc(S(=O)(=O)N2CCCC(C(=O)NCCC(C)C)C2)cc1 (configuration not stated) was read as miR-21 FLuc -1%, GLA inh pH 4.5 -17, Rango release inh 0% and Rango complex inh 5.4%.
`O=C(CN1CCCC1)Nc1cc(F)ccc1F` gave miR-21 FLuc -2%, GLA inh pH 4.5 2, Rango release inh -4% and Rango complex inh -3.5%.
Screening COc1ccc(C(=O)Nc2ccccc2C(=O)Nc2ccccn2)cc1 returned miR-21 FLuc -24%, Rango release inh 15% and Rango complex inh -0.6%.
For C/C(CCS(=O)(=O)c1ccccc1)=N/O the results were miR-21 FLuc -2%, GLA inh pH 4.5 1, Rango release inh 0% and Rango complex inh 0.1%.
CCN1Cc2c(cc(OC)c(OC)c2OC)-c2ccccc2S1(=O)=O was read as Rango release inh 11% and Rango complex inh 2.6%.
COc1ccc(S(=O)(=O)N2CCC(C(=O)N3CCCCC3)CC2)cc1Cl was read as miR-21 FLuc -2%, GLA inh pH 4.5 0, Rango release inh 14% and Rango complex inh -0.2%.
`CCC(C)NS(=O)(=O)c1ccc(OCC(=O)Nc2ccc3c(c2)OCO3)cc1` (configuration not stated) gave miR-21 FLuc 4%, GLA inh pH 4.5 0, Rango release inh -1% and Rango complex inh -2.6%.
CC(NC(=O)c1cccc(Br)c1)c1ccccc1 (configuration not stated) was read as miR-21 FLuc -2%, GLA inh pH 4.5 7, Rango release inh 22% and Rango complex inh -0.8%.
Screening COc1ccc(C(=O)O/N=C(\N)c2cccc(C)c2)cc1OC returned miR-21 FLuc -67%, Rango release inh -20% and Rango complex inh -0.5%.
For CC1=NCC(C)c2c1[nH]c1ccccc21 (configuration not stated) the results were miR-21 FLuc -8%, GLA inh pH 4.5 2, Rango release inh -12% and Rango complex inh inconclusive.

Next part, overlapping the part above by two compounds.
Screening COc1ccc(C(=O)O/N=C(\N)c2cccc(C)c2)cc1OC returned miR-21 FLuc -67%, Rango release inh -20% and Rango complex inh -0.5%.
For CC1=NCC(C)c2c1[nH]c1ccccc21 (configuration not stated) the results were miR-21 FLuc -8%, GLA inh pH 4.5 2, Rango release inh -12% and Rango complex inh inconclusive.
`Cc1ccc(S(=O)(=O)c2c(N)n(/N=C/c3ccco3)c3nc4ccccc4nc23)cc1C` gave miR-21 FLuc 1%, GLA inh pH 4.5 -2, Rango release inh inconclusive and Rango complex inh inconclusive.
`COc1ccccc1CNC(=O)c1cc2c(=O)[nH]c3ccccc3c2n1C` gave miR-21 FLuc -8% and GLA inh pH 4.5 1.
For CC1CC(C)CN(S(=O)(=O)c2ccc(C(=O)N(c3ccccn3)C3CCCCC3)cc2)C1 (configuration not stated) the results were miR-21 FLuc -2%, GLA inh pH 4.5 -11, Rango release inh 0% and Rango complex inh 0.2%.
Screening CC(=O)c1nc2ccccc2n1S(=O)(=O)c1ccc(Cl)cc1 returned miR-21 FLuc -3%, GLA inh pH 4.5 0, Rango release inh 15% and Rango complex inh -0.1%.
For CCC(C(=O)N1CCC(N2CCCCC2)CC1)n1nc(C)c2sc3ccccc3c2c1=O (configuration not stated) the results were miR-21 FLuc 1%, Rango release inh 16% and Rango complex inh 1.1%.
`O=S(Cc1ccc(Cl)cc1)c1ncc(CO)n1Cc1ccccc1` (configuration not stated) gave miR-21 FLuc -1%, GLA inh pH 4.5 -5, Rango release inh -11% and Rango complex inh 4.1%.
O=C(CCN1C(=O)C2C3C=CC(C4CC34)C2C1=O)OCC(=O)c1ccccc1 (configuration not stated) was read as miR-21 FLuc 2%, Rango release inh -9% and Rango complex inh -1.5%.
Screening COc1ccc(S(=O)(=O)N2CCCCCC2)cc1C(=O)NCc1cccs1 returned Rango release inh 17% and Rango complex inh -0.8%.
CC1C=CCC2C(=O)N(c3cccc(C(=O)Nc4ccc(F)cc4)c3)C(=O)C12 (configuration not stated) was read as miR-21 FLuc -8%, Rango release inh 2% and Rango complex inh -0.1%.
Screening Cc1ccc(N2CCN(S(=O)(=O)c3ccc(F)cc3)CC2)c(C)c1 returned miR-21 FLuc -1%, GLA inh pH 4.5 -5, Rango release inh -21% and Rango complex inh 2.2%.
For CCN(CC)CCNC(=O)NC(=O)c1ccc(Cl)cc1 the results were miR-21 FLuc -14%, GLA inh pH 4.5 7, Rango release inh -1% and Rango complex inh -1.0%.
Screening COc1ccc(CNC(=O)C2CCC(CNc3c(N4CCCCC4)c(=O)c3=O)CC2)cc1 (configuration not stated) returned miR-21 FLuc -2%, GLA inh pH 4.5 -1, Rango release inh 10% and Rango complex inh 0.3%.
For Cc1cccc(OCC(O)Cn2c(-n3nc(C)cc3C)nc3c2c(=O)[nH]c(=O)n3C)c1 (configuration not stated) the results were miR-21 FLuc -4%, GLA inh pH 4.5 0, Rango release inh -16% and Rango complex inh -3.3%.
NC(=S)NN=C1c2cc(S(=O)(=O)N3CCOCC3)ccc2-c2ccc(S(=O)(=O)N3CCOCC3)cc21 was read as miR-21 FLuc -7%, GLA inh pH 4.5 -9, Rango release inh 0% and Rango complex inh -4.5%.
COc1cc(OC)cc(C(=O)NC2CCN(CC(=O)Nc3cccc4ccccc34)CC2)c1 was read as miR-21 FLuc -10%, GLA inh pH 4.5 -1, Rango release inh 8% and Rango complex inh -1.5%.
`O=C(NCc1ccccc1Cl)c1ccc2ccccc2n1` gave miR-21 FLuc -58%, Rango release inh 5% and Rango complex inh 3.6%.
Screening COc1ccc(N2CCN(C(=O)c3cc4ccccc4o3)CC2)cc1 returned miR-21 FLuc 0%, Rango release inh -6% and Rango complex inh -0.7%.
Screening CCC(/C=C1\Sc2ccc(OC)cc2N1CCO)=C\c1sc2ccc(OC)cc2[n+]1CCO returned miR-21 FLuc 23%, GLA inh pH 4.5 6, Rango release inh 1% and Rango complex inh -0.1%.
c1ccc(-c2ncc(-c3ccn[nH]3)s2)cc1 was read as miR-21 FLuc -35%, GLA inh pH 4.5 2, Rango release inh 18% and Rango complex inh -4.8%.
Cc1ccc(OCCCC(=O)Nc2ccc(S(=O)(=O)Nc3cc(C)on3)cc2)cc1 was read as miR-21 FLuc -12%, GLA inh pH 4.5 -7, Rango release inh -10% and Rango complex inh 0.0%.
For C/C(=N/NC(=O)c1ccc(Br)o1)c1ccc(C)o1 the results were miR-21 FLuc -64%, GLA inh pH 4.5 3, Rango release inh 3% and Rango complex inh -0.3%.
CC(C)NS(=O)(=O)c1ccc(OCC(=O)NCC2CCCO2)c(Cl)c1 (configuration not stated) was read as miR-21 FLuc -3%, GLA inh pH 4.5 5, Rango release inh -4% and Rango complex inh -0.4%.
`CCOc1ccc(NS(=O)(=O)c2ccc3c(c2)N(C(C)=O)CC3)cc1` gave miR-21 FLuc 2%, GLA inh pH 4.5 6, Rango release inh 3% and Rango complex inh -3.3%.
`COc1cc(/C=N/NC(=O)c2ccc(O)cc2)ccc1Oc1ccc([N+](=O)[O-])cn1` gave miR-21 FLuc -2%, GLA inh pH 4.5 -10, Rango release inh 0% and Rango complex inh -2.4%.

Entries from the list above containing an NH in an aromatic ring:
For CC1=NCC(C)c2c1[nH]c1ccccc21 (configuration not stated) the results were miR-21 FLuc -8%, GLA inh pH 4.5 2, Rango release inh -12% and Rango complex inh inconclusive.
`COc1ccccc1CNC(=O)c1cc2c(=O)[nH]c3ccccc3c2n1C` gave miR-21 FLuc -8% and GLA inh pH 4.5 1.
For Cc1cccc(OCC(O)Cn2c(-n3nc(C)cc3C)nc3c2c(=O)[nH]c(=O)n3C)c1 (configuration not stated) the results were miR-21 FLuc -4%, GLA inh pH 4.5 0, Rango release inh -16% and Rango complex inh -3.3%.
c1ccc(-c2ncc(-c3ccn[nH]3)s2)cc1 was read as miR-21 FLuc -35%, GLA inh pH 4.5 2, Rango release inh 18% and Rango complex inh -4.8%.

Continuation.
`OC(CNC1CCCc2ccccc21)COc1ccc2ccccc2c1` (configuration not stated) gave miR-21 FLuc -6%, GLA inh pH 4.5 3, Rango release inh -6% and Rango complex inh 2.3%.
`O=C(Cc1ccccc1)c1c[nH]c(C(=O)NCc2ccncc2)c1` gave miR-21 FLuc -1%, GLA inh pH 4.5 -5, Rango release inh -22% and Rango complex inh -4.2%.
Screening COC(=O)c1[nH]c2cccc(OC)c2c1NC(=O)CCN1CCN(c2ccccc2F)CC1 returned miR-21 FLuc -1% and GLA inh pH 4.5 2.
COc1ccc(-c2nnc(SCc3ccccc3F)o2)cc1OC was read as miR-21 FLuc -55%, GLA inh pH 4.5 -12, Rango release inh -5% and Rango complex inh -2.2%.
`O=[N+]([O-])c1cccc(S(=O)(=O)N2CCCCC2c2cccnc2)c1` (configuration not stated) gave miR-21 FLuc 0%, Rango release inh -10% and Rango complex inh 1.5%.
COc1ccc(N2CCC(CNC(=O)Nc3ccc(OC)cc3OC)C2)cc1 (configuration not stated) was read as miR-21 FLuc -3%, GLA inh pH 4.5 0, Rango release inh -24% and Rango complex inh 0.5%.
`COc1cccc(Nc2nc(=O)[nH]nc2C)c1` gave miR-21 FLuc -6%, GLA inh pH 4.5 6, Rango release inh -4% and Rango complex inh 1.2%.
COc1cc(/C=C/C(=O)Nc2ccc(C(C)=O)cc2)cc(OC)c1OC was read as miR-21 FLuc 0%, GLA inh pH 4.5 -3, Rango release inh 1% and Rango complex inh 1.1%.
`CCOC(=O)c1c(-c2ccccc2)csc1NC(=S)N(CC)CC` gave miR-21 FLuc -2%, GLA inh pH 4.5 6, Rango release inh 15% and Rango complex inh 2.4%.
For Cc1ccc(S(=O)(=O)N2CCCCC2)cc1NC(=O)Cn1ncc(Cl)c(Cl)c1=O the results were Rango release inh 12% and Rango complex inh -0.2%.
`O=C(O)CCC(=O)N1N=C(c2ccco2)CC1c1cccs1` (configuration not stated) gave miR-21 FLuc -8%, GLA inh pH 4.5 -1, Rango release inh 15% and Rango complex inh 5.8%.
`N=c1c(-c2nc3ccccc3[nH]2)cc(C(=O)c2cccs2)nn1-c1ccccc1` gave miR-21 FLuc -7%, GLA inh pH 4.5 -10, Rango release inh -13% and Rango complex inh 1.4%.
`O=C(NC1CCOc2ccccc21)c1ccc(Cl)nc1` (configuration not stated) gave miR-21 FLuc 1%, Rango release inh 13% and Rango complex inh -1.2%.
Screening CS(=O)(=O)c1ccc2nc(NC(=O)c3ccccc3Br)sc2c1 returned miR-21 FLuc -43%, Rango release inh 0% and Rango complex inh -0.5%.
CCOc1ccc(S(=O)(=O)NCCC(=O)N(C)CC(=O)Nc2ccc(N3CCOCC3)cc2)cc1 was read as Rango release inh 8% and Rango complex inh 3.4%.
COc1ccc(N2C(=O)C3ON(C4SC(=S)N(C)C4(C)C)C(c4ccc(Cl)cc4)C3C2=O)cc1 (configuration not stated) was read as miR-21 FLuc -2%, GLA inh pH 4.5 1, Rango release inh -18% and Rango complex inh 2.2%.
Screening COc1ccc(CNC(=O)CSc2nnc(C3CC3)n2C2CC2)cc1 returned Rango release inh 2% and Rango complex inh -1.0%.
Screening CCC(O)(C#CCN1CCCCC1)CC returned miR-21 FLuc -6%, GLA inh pH 4.5 0, Rango release inh 2% and Rango complex inh 1.0%.
For NC1=NC(c2ccc(Cl)cc2)N(c2ccc(S(N)(=O)=O)cc2)C(N)=N1 (configuration not stated) the results were miR-21 FLuc -6%, GLA inh pH 4.5 1, Rango release inh -2% and Rango complex inh -1.5%.
`COc1ccc(C)cc1NC(=O)COC(C)=O` gave miR-21 FLuc 0%, GLA inh pH 4.5 -5, Rango release inh 0% and Rango complex inh -1.0%.
For COCCn1c(-c2cc(OC)c(OC)c(OC)c2)nc2oc3ccccc3c(=O)c2c1=O the results were miR-21 FLuc -1%, GLA inh pH 4.5 0, Rango release inh 64% and Rango complex inh -1.4%.
